Source: PubChem
VACV mCherry inh = inhibitors of vaccinia virus infection (mCherry reporter signal) | Vaccinia virus mCherry reporter infection, fluorescence; about a quarter of the inactives have no number | Potency, µM (highest dose often 36.5 µM), without a hit: at the highest dose activity change, negative = inhibition, most hits filed as inhibitors | actives 0.63% (n = 310,000) | AID 720579; active = well fitted inhibition curve with a large enough effect; inconclusive = small, poorly fitted or top-dose-only effect; inactive = no such curve, though single readings can be large or run the other way; tested in A549 cells; also: nearly all actives have a fitted effect of over 35% in size; inactives centre near -10
VACV Venus inh = vaccinia inhibition (Venus reporter) | Vaccinia virus Venus reporter expression, fluorescence | Potency, µM (top dose mostly 36.5 µM), without a hit: at the highest dose activity change, negative = inhibition, hits mostly inhibitors | actives 0.46% (n = 330,000) | AID 720580; active means well fitted inhibition curve with a large enough effect; inconclusive means small, poorly fitted or top-dose-only effect; inactive means no such curve, though single readings can be large or run the other way; tested in A549 cells; also: nearly all actives have a fitted effect of over 30% in size; inactives centre near -10
Starred values were filed as active, the others as inactive; i = inactive; ? = inconclusive; . = not tested or not shown; & = joins results of further samples; [ ] = remark or other dose. % is scaled to controls: 0 for no effect and ±100 for the full control effect; potency is read from the fitted curve at half-maximal effect.

nr	smiles	VACV mCherry inh	VACV Venus inh
1	CCOC(=O)c1cc2c(=O)n3ccccc3nc2n(CCOC)c1=NC(=O)c1c(-c2c(F)cccc2Cl)noc1C	-3%&-6%	1%&-14%
2	CCCn1cc(S(=O)(=O)c2cc(C)ccc2C)c(=O)c2cc(F)c(N3CCN(CC)CC3)cc21	-14%	-19%
3	COc1ccccc1C(=O)Nc1ccc(S(=O)(=O)NC2=NCCCCC2)cc1	i	-11%
4	O=C(NCCc1ccccc1)C1c2ccccc2C(=O)N1Cc1cccs1 (stereo not drawn)	-3%	-2%
5	COC(=O)C(C(=O)OC)C(C(C)C)C(C(=O)OC)C(=O)OC	-8%	-2%
6	CCOC(=O)C1=C(C)NC(C)=C(C(=O)OCC)C1c1ccc(Br)o1	-13%	-19%
7	CN(CC(=O)Nc1ccc(F)c(F)c1F)C(=O)CN1C(=O)NC2(CCCC2)C1=O	i	1%
8	CN(C)c1ccc(C(=O)OCC(=O)N2CCOCC2)cc1	2%	0%
9	CCOC(=O)c1c(NC(=O)CN2CCCc3ccccc32)sc(C(C)=O)c1C	0%	-9%
10	CCN(CC)c1ccc(NC(=O)CN2C(=O)c3cccnc3Oc3ccccc32)c(C)c1	-9%	-4%
11	COc1ccc(-c2cc(C(F)(F)F)c(C#N)c(=O)[nH]2)cc1	-5%	-6%
12	Cc1cccc(C(=O)OCC(=O)N(C)c2ccccc2)c1C	?	-17%
13	NC(=O)c1cccnc1Nc1cccc([N+](=O)[O-])c1	-27%	9%
14	CCOc1ccccc1N1CCN(C(=O)c2ccccc2SCC(=O)N2CCCC2)CC1	-16%	-7%
15	Nn1c(Cc2cccc3ccccc23)nnc1SCn1nnc2ccccc2c1=O	-2%	-10%
16	CC[C@]1(c2ccccc2)C(=O)N(C(=O)OC)N1C(=O)OC	?	?
17	O=C(CNC(=O)C1CCCCC1)OCC(=O)c1ccc([N+](=O)[O-])cc1	-16%	-13%
18	CCOC(=O)C1C(c2ccccc2)NC(=S)NC1(C)O (stereo not drawn)	-7%	-2%
19	COc1cc(/C=C2\SC(=S)N(CCC(=O)Nc3ccccc3)C2=O)cc(OC)c1OC	0%	-2%
20	CC(=O)Nc1ccc(NC(=O)c2ccc3c(c2)N(Cc2cccc(Cl)c2)C(=O)c2ccccc2S3(=O)=O)cc1	-19%	-7%
21	CCOc1cc(N2CCOCC2)c(OCC)cc1NC(=O)COC(=O)c1c(CC)noc1C	i	-9%
22	COCCCn1nnnc1SCC(=O)N1c2ccccc2CC1C (stereo not drawn)	i	2%
23	c1ccc(-c2nc3ccccn3c2-c2ccccc2)cc1	-29%	-19%
24	CCOC(=O)CC1C(=O)NCCN1S(=O)(=O)c1ccc(NC(C)=O)cc1 (stereo not drawn)	i	-17%
25	CSc1ccc(CCNC(=O)c2ccc(-n3c(C)cc4c3CCC(C)C4)cc2)cc1 (stereo not drawn)	-1%	-8%
26	C/C(=N\NC(=O)c1nn(C)c(C)c1Br)c1ccc(NC(=O)c2ccccc2F)cc1	-10%	-20%
27	Cc1nn(CCCC(=O)Nc2sc3c(c2C#N)CCC3)c(C)c1[N+](=O)[O-]	-21%	-11%
28	CN1CCC(=NNC(=O)c2ccc(N(Cc3ccc(Cl)cc3)S(C)(=O)=O)cc2)CC1	-19%	-13%
29	Nc1ccn(C2CCCCO2)c(=O)n1 (stereo not drawn)	i	7%
30	c1ccc(Cn2nnnc2C(c2cccs2)N2CCOCC2)cc1 (stereo not drawn)	.	-14%

The final three compounds of the part above are carried over, then new ones follow.
nr	smiles	VACV mCherry inh	VACV Venus inh
28	CN1CCC(=NNC(=O)c2ccc(N(Cc3ccc(Cl)cc3)S(C)(=O)=O)cc2)CC1	-19%	-13%
29	Nc1ccn(C2CCCCO2)c(=O)n1 (stereo not drawn)	i	7%
30	c1ccc(Cn2nnnc2C(c2cccs2)N2CCOCC2)cc1 (stereo not drawn)	.	-14%
31	O=C(CCNS(=O)(=O)c1ccccc1C(F)(F)F)N1CCN(C(c2ccccc2)c2ccccc2)CC1	?	-25%
32	O=C(CC12CC3CC(CC(Br)(C3)C1)C2)Nc1nncs1	-8%	8%
33	Cc1ccc(S(=O)(=O)N2CCCC(C(=O)N(Cc3cccs3)C3CC3)C2)cc1 (stereo not drawn)	?	-20%
34	CCn1c(C)[n+](Cc2ccccc2)c2ccc(Cl)cc21	-12%	-4%
35	CCCCN(C(=O)CC(c1ccccc1)c1ccccc1)c1c(N)n(CCC)c(=O)[nH]c1=O	-15%	-14%
36	O=C1/C(=C/C=C/c2ccco2)SC(=S)N1NS(=O)(=O)c1ccccc1	9%	30%[activator]
37	CC(=O)Nc1ccc(S(=O)(=O)N2c3ccccc3NC(=O)CC2C)c(Cl)c1 (stereo not drawn)	i[7.34 µM]	2%[7.34 µM]
38	CCOC(=O)C1=C(N)Oc2cc(O)ccc2C1c1cccc([N+](=O)[O-])c1 (stereo not drawn)	-29%	-26%
39	CCc1cc(=O)oc2c(C)c(OS(C)(=O)=O)ccc12	-26%	-5%
40	O=C(c1cccs1)c1cn(CC(=O)N2CCc3ccccc3C2)c2ccccc12	-18%	-11%
41	Cc1ccc(-c2nc(N)n(S(=O)(=O)c3ccc(C)cc3)n2)cc1	-20%	-17%
42	O=c1cc(CN2CCN(S(=O)(=O)c3cccc(Cl)c3)CC2)c2ccc(O)cc2o1	?	-30%
43	Cc1ccc(Oc2nc(-c3ccccn3)nc3ccccc23)cc1	?	-12%
44	COC(=O)C1=C(C)OC(N)=C(C#N)C1c1ccco1 (stereo not drawn)	-15%	-8%
45	O=C1C2C3C=CC(C3)C2C(=O)N1CCCCN1C(=O)C2C3C=CC(C3)C2C1=O (stereo not drawn)	i[1.46 µM]	-13%
46	O=C(CNS(=O)(=O)c1ccccc1)NCC(=O)OCc1ccccc1F	i	2%
47	N#Cc1ccccc1NC(=O)CSc1n[nH]c(=O)n1C1CC1	0%	-19%
48	Cc1ccc(C)c(Nc2nn3c(=O)c4ccc(C(=O)NCc5ccccc5)cc4nc3s2)c1	?	?
49	Cc1ccc(SCC(=O)c2ccc(CC(=O)O)s2)cc1	i	4%
50	CC(C)n1nnnc1SCC(=O)N(C)C1CCS(=O)(=O)C1 (stereo not drawn)	-10%	13%
51	CCCNC(=S)N(Cc1ccccc1)Cc1nc2ccccc2c(=O)[nH]1	-12%	-16%
52	COC(=O)c1c(NC(=O)CSc2nnc(CNc3ccc(Cl)cc3)o2)sc(C)c1C	.	-11%
53	CCOC(=O)c1cc2c(=O)n3cccc(C)c3nc2n(CC(C)C)c1=NC(=O)c1ccco1	?	-8%
54	COc1ccc(S(=O)(=O)N2CC(O)C[C@H]2C(=O)OCC(=O)N2CCCCCC2)cc1 (stereo partly drawn)	-5%	-19%
55	Cc1ccc(S(=O)(=O)N2CCOCC2)cc1NC(=O)COC(=O)c1n[nH]c(=O)c2ccccc12	i	14%
56	COc1ccc(NS(=O)(=O)c2cc(NC(=O)CCNC(=O)c3ccco3)ccc2OC)cc1	-8%	-3%
57	CCN1CCCC1CNCc1cc2ccc(SC)cc2nc1-c1cc(OC)ccc1OC (stereo not drawn)	9%	27%
58	CCOC(=O)c1cnn(-c2cc(Oc3ccccc3C)ncn2)c1N	.	-3%
59	CC1=C(C(=O)OC2CCCCCC2)C(c2cccc(Cl)c2)CC(=O)N1 (stereo not drawn)	-17%	-20%
60	CCOC(=O)NC(O)C(=O)c1cccs1 (stereo not drawn)	-14%	-2%
61	COc1ccc(-n2c(SCC(=O)NCc3ccco3)nc3c([nH]c4ccccc43)c2=O)cc1	-8%&24%	-6%&-11%
62	CSc1ncccc1C(=O)Nc1nc(C(C)(C)C)cs1	-28%	-25%
63	COc1ccccc1N1CCN(CC(O)c2ccccc2)CC1 (stereo not drawn)	?	2%
64	CCCNC(=O)C1CC(c2cccc(F)c2)=NO1 (stereo not drawn)	-11%	-15%
65	CSC1=N/C(=C\c2ccc3c(c2)OCO3)C(=O)S1	.	3%
66	OC(COc1ccc2ccccc2c1Br)Cn1cnc(-c2ccccc2)c1 (stereo not drawn)	?	-22%
67	N#CCCn1c(SCC(=O)NCCc2ccc(F)cc2)nc2ccccc21	.	-28%
68	COc1cc(OC)c(C(=O)OCC(=O)NCCc2ccccc2)cc1OC	-10%	-10%
69	COc1ccc(C2CC(c3ccccc3)=NN2c2ccc(C(N)=O)cc2)cc1 (stereo not drawn)	-17%	-27%
70	O=C(NCc1ccco1)c1ccc2c(c1)N(Cc1ccccc1)C(=O)c1ccccc1S2(=O)=O	-10%	-6%
71	CCOC(=O)C(C)Sc1nc2c(c(=O)[nH]c(=O)n2C)n1Cc1ccc(Cl)cc1 (stereo not drawn)	i	-6%
72	COc1ccccc1NC(=O)N(C)C[C@H]1OCc2cnnn2CCCC(=O)N([C@H](C)CO)C[C@@H]1C	i	-17%
73	Cc1cccc(C(=O)OCC(=O)Nc2nnc(-c3ccccc3)o2)c1O	-9%	-9%
74	COc1ccc(NC(=O)Nc2ccc([N+](=O)[O-])cc2)cn1	-13%	?
75	COc1ccc(C2=NN(c3nc4ccccc4s3)C(=O)/C2=C\N(C)C)cc1	-15%	-12%
76	COC(=O)[C@H]1C[C@H](OC(=O)NCC2CCCCC2)[C@@]2(O)CN(S(=O)(=O)c3ccc(C)cc3)CC2[C@H]1C(=O)OC (stereo partly drawn)	3%	-14%
77	CCN(CC)S(=O)(=O)c1cc(C(=O)OCC(=O)NC(=O)c2cccn2C)ccc1C	-2%	-13%
78	COc1ccc(C(=O)NCCCNC(=O)c2cnccn2)cc1	-22%	-1%
79	CN(/C=C/c1c([N+](=O)[O-])c(=O)n(C)c(=O)n1C)c1ccccc1	3%	-2%
80	Cc1ccc(NC(=O)Nc2nc3c(s2)CCCCCC3)cc1C	-14%	-7%
81	OCC(O)CN(c1ccccc1)c1ccccc1 (stereo not drawn)	2%	7%
82	CCC(Sc1nnc2c(n1)[nH]c1ccccc12)C(=O)Nc1ccccc1OC (stereo not drawn)	-9%	-21%
83	COc1ccc(N2CCN(C(=O)CSc3n[nH]c(-c4ccccc4Cl)n3)CC2)cc1	-11%	-12%
84	C(=Nc1ccc(/C=C/c2ccnc3ccccc23)cc1)c1cccs1	3%	-6%
85	O=C(/C=C\c1cccs1)N1CCN(Cc2ccc3c(c2)OCO3)CC1	-9%	-7%
86	COc1ccc(NC2=NC(C)(C)CS2)cc1	-7%	2%
87	O=C(Cn1c(-c2cccs2)cc2cc(Cl)ccc21)NCc1ccccc1	-7%	-17%
88	CCCCc1cc(=O)oc2cc(C)cc(OCC(=O)N3CCC(C(N)=O)CC3)c12	-10%	-6%
89	COc1ccccc1CNC(=O)C(=O)NCC1OCCN1S(=O)(=O)c1ccc(Br)cc1 (stereo not drawn)	-27%	?
90	Cc1ccc(NC(=O)CCn2c(=O)oc3ccccc32)c(C)c1	-19%	-17%

(continued)
nr	smiles	VACV mCherry inh	VACV Venus inh
91	CC(=O)N1c2ccccc2CC1C(=O)N1CCN(c2ccccc2)CC1 (stereo not drawn)	-2%	5%
92	COc1cc(Br)cc(/C=N/N(CCO)C2=NS(=O)(=O)c3ccccc32)c1OC	-7%	-29%
93	O=C(Nc1cccnc1)c1ccc(S(=O)(=O)N2CCCCCC2)cc1	-2%[1.46 µM]	-14%
94	O=C(Cc1ccc([N+](=O)[O-])cc1)N1N=C(C2CC2)CC1(O)C(F)(F)F (stereo not drawn)	-6%	-7%
95	COc1ccc(-c2ccc(CN3C(CC(C)C)C(=O)N(Cc4cn(CC5CCCCC5)nn4)CCS3(=O)=O)cc2)cn1 (stereo not drawn)	-26%	?
96	Clc1ccc(-c2ncc3ccccn23)cc1	i	-15%
97	Cc1ccc(C(=O)NC2CCN(C(=O)NC3CCCCC3)CC2)cc1	-13%	-1%
98	CN(Cc1cnc2nc(N)nc(N)c2n1)c1ccc(C(=O)NC(CCC(=O)O)C(=O)O)cc1 (stereo not drawn)	11µM*	?
99	Cc1ccc(S(=O)(=O)N2CCCC2)cc1C(=O)NCC(C)(C)N1CCOCC1	-15%	-5%
100	COc1ccc(OC)c(C(=O)CCCCC(=O)c2cc(OC)ccc2OC)c1	-3%	-7%
101	CNCCc1ccc(O)c(O)c1	-1%	-8%&-18%
102	Oc1ccc(/C=N/NC(=S)NC2CC3CCC2C3)cc1 (stereo not drawn)	-22%	0%
103	Cc1ccc(C(=O)Nc2ccc(N3CCCC3)cc2)c(C)c1	-13%	-8%
104	O=C(COC(=O)Cc1ccccc1[N+](=O)[O-])Nc1nnc(-c2ccccc2)o1	i	-7%
105	Cc1cccc(CNC(=O)c2ccc(-c3nc(CS(=O)(=O)c4ccccc4)c(C)o3)cc2)c1	-18%	?

Profiles from above. Order of screens: VACV mCherry inh, VACV Venus inh
Listed for Clc1ccc(-c2ncc3ccccn23)cc1 → i, -15%
Listed for Cc1ccc(C(=O)NC2CCN(C(=O)NC3CCCCC3)CC2)cc1 → -13%, -1%
Listed for CN(Cc1cnc2nc(N)nc(N)c2n1)c1ccc(C(=O)NC(CCC(=O)O)C(=O)O)cc1 (stereo not drawn) → 11µM*, ?
Listed for CNCCc1ccc(O)c(O)c1 → -1%, -8%&-18%
Listed for O=C(Cc1ccc([N+](=O)[O-])cc1)N1N=C(C2CC2)CC1(O)C(F)(F)F (stereo not drawn) → -6%, -7%
